# D2 agonist = agonists of human D2 dopamine receptor (beta-arrestin); P14416; DiscoveRx PathHunter D2 beta-arrestin, luminescence, 90 min; 100% = 57 uM dopamine signal; activation, % (concentration not given with the values); 360,000 compounds, 0.084% hits; in the data active = activation above about 40%; inconclusive = about 15% to 40%; inactive = below about 15%; further: the text of the record calls up to 30% inactive
# Target sequence (P14416 whole entry, looked up): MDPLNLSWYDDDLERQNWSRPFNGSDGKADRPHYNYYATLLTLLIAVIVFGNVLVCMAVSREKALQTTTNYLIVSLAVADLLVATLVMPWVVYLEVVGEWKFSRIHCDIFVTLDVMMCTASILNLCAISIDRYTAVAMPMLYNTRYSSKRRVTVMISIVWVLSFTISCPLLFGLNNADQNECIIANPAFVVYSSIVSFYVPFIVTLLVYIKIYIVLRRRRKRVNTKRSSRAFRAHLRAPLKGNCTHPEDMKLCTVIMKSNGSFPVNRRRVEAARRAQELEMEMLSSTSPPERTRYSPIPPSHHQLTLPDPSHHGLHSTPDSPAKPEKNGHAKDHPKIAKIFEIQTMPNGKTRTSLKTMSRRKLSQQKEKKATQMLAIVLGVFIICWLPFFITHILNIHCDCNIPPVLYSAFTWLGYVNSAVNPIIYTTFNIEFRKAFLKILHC
#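 DiscoveRx PathHunter D2 beta-arrestin cells (2,100/well) attached overnight, then compound-stimulated 90 min at 37 C in HBSS/10 mM HEPES/0.1% Tween-20 buffer; beta-galactosidase complementation read by luminescence after 1 h at ambient temperature. Dopamine 57 uM final (EC100) as control.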
# Menin MLL FP FL = inhibitors of human menin-MLL interaction, wild-type MLL peptide; Fluorescence polarization, fluorescein-MLL peptide displacement from menin; FP activity change, % at 61.4 µM; 290,000 tested, under 10 active; AID 1766; inconclusive = falling polarisation curve, or a change in total fluorescence; inactive = total fluorescence flat and polarisation flat or rising; no compound was filed as active; the % refers to the polarisation; negative = inhibition;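 further: % of control where 0% means no effect; inhibitors lower the polarisation; unlabelled MLL peptide was the positive control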
# ClpP mod = qHTS Assay for Activators of ClpP | ATP-dependent Clp protease proteolytic subunit (Bacillus subtilis (strain 168)), P80244 | purified B. subtilis ClpP, FRET peptide cleavage, 20 min | Potency, µM (highest dose often 57.5 µM), without a hit: at the top dose activity change, negative = active | 340,000 compounds, 1.9% hits; active = well fitted falling curve with a large enough effect; inconclusive = small, poorly fitted or top-dose-only effect; inactive = no such curve, though single readings can be large or run the other way; further: potency means the concentration at half of the fitted maximal effect; the source files actives as falling curves though it sought activators and does not explain the sign; nearly all actives have a fitted effect of over 65% in size; many hits overshoot -100%
# Target sequence (P80244 whole entry, looked up): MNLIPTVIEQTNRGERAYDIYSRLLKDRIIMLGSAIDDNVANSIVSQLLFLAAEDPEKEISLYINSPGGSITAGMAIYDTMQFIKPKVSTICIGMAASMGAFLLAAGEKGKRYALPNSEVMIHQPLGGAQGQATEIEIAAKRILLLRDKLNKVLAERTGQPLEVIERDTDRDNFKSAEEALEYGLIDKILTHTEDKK
#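 Purified B. subtilis ClpP, 10 microg/mL final in Tris/HCl pH8 with KCl, BSA, glycerol and Tween-20, cleaved an Abz/nitrotyrosine-quenched decapeptide. Fluorescence (ex 320, em 430) was read at 0 and 20 min at room temperature. Delta was normalized to 5.8 microM ADEP and DMSO/no-enzyme controls.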
# gsp agonist = gsp mutant agonism; gsp mutant cells, cAMP HTRF, 30 min; control for the full effect not named in the record; Potency, µM (highest dose often 76.9 µM), for inactives: at the highest dose activation (cAMP increase), most hits filed as activators; AID 624287; 340,000 compounds, 0.13% hits; active = well fitted activation curve with a large enough effect; inconclusive = small, poorly fitted or top-dose-only effect, or another doubt; inactive = no such curve, though single readings can be large or run the other way; cell line not stated here;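 further: phosphodiesterase inhibitor Ro 20-1724 added with compounds to block cAMP breakdown; potency means the concentration at half of the fitted maximal effect; nearly all actives have a fitted effect of over 60% in size; about a fifth of the inactives were tested at one dose only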
#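 Cells stably selected in G418 were plated at 2000/well, grown 16-24 hr, then given compounds in DMSO with the PDE inhibitor […] (300 uM solution added) for 30 min at 37C; cAMP was read by HTRF.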
# gsp antagonist = antagonists of gsp mutant (McCune-Albright syndrome); gsp-mutant cells, cAMP HTRF, 30 min; control for the full effect not named in the record; Potency, µM (doses to about 76.9 µM), for inactives: at the top dose activity change, negative = inhibition, most hits filed as inhibitors; 340,000 compounds, 0.4% hits; active = falling curve of any shape with a large fitted effect; inconclusive = falling curve, mostly with a smaller effect; inactive = flat or rising curve; cell line not stated here;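 further: intracellular cAMP measured with PDE inhibitor Ro 20-1724 present during compound exposure; potency means the concentration at half of the fitted maximal effect; on the % scale 0 is the no-effect control and ±100 the full control effect; nearly all actives have a fitted effect of over 65% in size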
#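 HTRF cAMP measurement after 30 min RT detection following 30 min, 37C compound treatment alongside […] (added as 300 uM solution) in G418-selected cells seeded at 2000/well and grown 16–24 h.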
# PINK1 modulator = PINK1 expression modulation; 410,000 compounds, 0.2% hits; PINK1 immunofluorescence, high-content cytometry, 24 h; Potency, µM (highest dose often 76.6 µM), for inactives: at the highest dose activation (PINK1 increase), most hits filed as activators; active = well fitted activation curve with a large enough effect; inconclusive = small, poorly fitted or top-dose-only effect; inactive = flat fitted curve, though single readings scatter; cell line not stated here;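 further: potency means the concentration at half of the fitted maximal effect; % of control where 0% means no effect; nearly all actives have a fitted effect of over 65% in size; a mitochondrial uncoupler was the plate control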
#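 Cells are seeded, rested 12 hours, then given compound at five concentrations or DMSO for 24 hours. After fixation, blocking and antibody staining, PINK1 amount and mitochondrial localization are scored; CCCP serves as control.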
# Sfp inh = blocks B. subtilis Sfp PPTase activity; AID 1490; 310,000 compounds, 3.5% hits; Biochemical Sfp PPTase activity, qHTS; Q9F4F7; Potency, µM, for the others: max response, negative = inhibition, most hits filed as inhibitors; active means well fitted inhibition curve with a large enough effect; inconclusive means small, poorly fitted or top-dose-only effect, or another doubt; inactive means no such curve, though single readings can be large or run the other way;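 further: the enzyme is Sfp with the accession as filed and its product quenches rhodamine fluorescence; potency means the concentration at half of the fitted maximal effect; 0% = enzyme reaction without inhibitor and -100% = no enzyme wells; top concentration of the series not given in the record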
#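 Reaction rates are the 30-min fluorescence difference (ex 525, em 598 nm) in wells containing 15 nM Sfp, 5 uM rhodamine-CoA and 12.5 uM BHQ-2-YbbR at pH 7.6 with 10 mM MgCl2.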
# * marks the source's active call; other numbers are inactive results; ? = inconclusive; · = not tested or not shown; & = joins results of further samples; [ ] = remark or other dose.
SMILES,D2 agonist,Menin MLL FP FL,ClpP mod,gsp agonist,gsp antagonist,PINK1 modulator,Sfp inh
COc1ccc(C2CC(c3cccs3)=Nc3ccccc3S2)cc1 (stereo not drawn),-2.0,6.9,-2.4%,-27%,-22%,-0.9%,22µM*
COc1ccc2cc1Oc1ccc(cc1)CC1c3c(cc(OC)c4c3Oc3cc5c(cc3O4)CCNC5C2)CCN1C (stereo not drawn),1.4,3.9,-2.5%,-87%[inhibitor],-15%,-1.1%,?
CC(NC(=O)/C(C#N)=C/c1ccc(C(=O)O)cc1)c1ccccc1 (stereo not drawn),-0.8,-0.1,·,-18%[15.4 µM],1%,0.5%,-6%
COc1ccc(C(=O)Oc2cccc(/C=N/NC(N)=S)c2)cc1,-3.6,4.9,·,-13%[15.4 µM],-16%,0.9%,?
Cc1ccc(-n2c(C)csc2=N)cc1,-3.5,7.1,-2.1%,2%,2%,8.3%[38.3 µM],-9%
COC(=O)C1(C)CCCC2(C)C1CCC13OCC(CC21)C(O)(C(C)C)C3O (stereo not drawn),-2.0,·,0.1%,-22%,·,1.1%,·
C[C@@H]1COC(=O)[C@H](CC(=O)OC(C)(C)C)C/C=C\C[C@H](CC(=O)NCCO)C(=O)N1,-1.9,·,1.5%,·,5%,0.4%,·
Cc1oc(-c2cccc(Cl)c2)nc1CS(=O)(=O)CC(=O)NCCN1CCOCC1,-4.5,-0.9,-5.0%,9%,1%,1.8%,-2%
COc1ccc(N=C2SC(CC(=O)Nc3ccc(F)cc3)C(=O)N2Cc2ccco2)cc1 (stereo not drawn),1.9,0.8,1.4%,-7%,-19%,3.8%,-15%
CCC(=O)N(CCc1ccccc1C)Cc1cc2ccc(C)cc2[nH]c1=O,-3.8,1.5,-14%,-2%,-14%,3.4%,17%
CN1C(=O)c2cccc3c(S(=O)(=O)N(C)C)ccc1c23,-1.6,3.3,·,3%,8%,0.8%,5%
O=C(NNC(=O)c1sc2ccccc2c1Cl)Nc1ccc(Cl)cc1,-3.9,2.5,-0.6%,0%,-1%,-1.9%,5%
CCN(CC)CCOC(=O)c1ccc(NC(=O)CSc2nnc(-c3cccs3)n2CC)cc1,13,·,0.7%,23%,14%,-1.9%,·
Cc1cccc(NC(=O)c2sc(C)nc2C)c1,-1.4,3.0,0.0%,0%,6%,-2.5%,-8%
COc1ccc(CNC(=O)CSc2n[nH]c(N)n2)cc1,-3.0,-1.6,·,-2%[15.4 µM],6%,1.2%,15%
Cc1ccc(Cl)cc1-c1cc(C(=O)NCc2cc(C(F)(F)F)cc(C(F)(F)F)c2)[nH]n1,10,·,-2.9%,·,·,?,·
O=C(NC1CCN(Cc2ccccc2)CC1)C1CCN(S(=O)(=O)c2ccc(Cl)cc2)CC1,-6.4,·,·,-9%,3%,-1.2%,22%
CCC(C)/C(C)=N/Nc1ccc(S(N)(=O)=O)cc1[N+](=O)[O-] (stereo not drawn),2.0,0.5,·,3%[15.4 µM],-8%,4.7%,-6%
CCN(C(=O)CSc1nnc(-c2ccc3c(c2)OCO3)o1)C1CCS(=O)(=O)C1 (stereo not drawn),0.4,·,-8.2%,9%,7%,-2.3%,·
NC(=O)NOCc1ccccc1,-4.9,-3.6,·,9%[15.4 µM],·,-0.2%,-1%
CCN(CC(=O)Nc1c(F)cccc1F)C(=O)C1CCN(C(=O)c2ccc(F)cc2)CC1,-3.0,·,1.8%,15%[15.4 µM],13%,0.3%,·
CCN(Cc1ccncc1)Cc1ccc(OC)c(OC)c1,-2.5,-0.3,-2.7%,-1%,-2%,-1.1%,?
Cc1cc(Cl)ccc1NC(=S)NC1CCCC1,-5.6,0.6,1.0%,1%[15.4 µM],0%,2.0%,20%
CCc1sc(C(=O)N2CCN(C(=O)c3ccccc3)CC2)cc1C,-3.5,·,-0.8%,-49%[inhibitor],-2%,-1.3%,·
Nc1ccn([C@@H]2O[C@H](C(=O)N[C@H](CO)c3ccccc3)[C@@H](O)[C@H]2O)c(=O)n1,-4.1,·,-6.8%,·,·,-0.4%,·
Cc1cccc(NC(=O)CCNS(=O)(=O)c2ccc(Cl)cc2)c1,-3.8,-1.4,·,4%[15.4 µM],-2%,6.9%,0%
Oc1ccc(CNc2ccccc2O)cc1,11,?,-15%,-26%,-3%,-2.0%,50µM*
C/C(=N/NC(=O)c1ccncc1)c1cc2ccc(O)cc2oc1=O,-4.6,?,32µM*,-7%,5%,0.3%,13%
Oc1c(Cl)cc(Cl)cc1/C=N/NC(=S)NC1CC2C=CC1C2 (stereo not drawn),-5.4,13,·,?,?,23%,13%
N#CC1(NC(=O)CSc2nc3ccccc3s2)CCCCC1,-2.8,·,-2.5%,-2%,-3%,-2.2%,·
CC[C@H](NC(=O)c1c(C)c(-c2ccccc2)nc2ccccc12)c1ccccc1,-1.4,?,1.5%,·,-2%,0.2%,-5%&-3%
CCOC(=O)N1CCC(c2cc(=O)n(-c3ccccc3)[nH]2)CC1,0.6,2.2,0.8%,?,-19%,1.8%,-4%
COc1ccc2oc(C(=O)OCC(=O)N3CCCCC3)c(C)c2c1,-4.5,·,·,10%[15.4 µM],-4%,4.2%,·
CCN(C(=O)COC(=O)c1oc2ccc(OC)cc2c1C)C1CCS(=O)(=O)C1 (stereo not drawn),0.6,·,8.9µM*,-5%,10%,3.9%,·
CC(C)C(NC(=O)c1cccnc1)C(=O)O (stereo not drawn),-2.1,5.4,·,0%[15.4 µM],·,1.1%,5%
COc1ccc(NC(=O)COC(=O)c2cc(OC)c(OC)c(OC)c2)c([N+](=O)[O-])c1,-0.5,2.9,-1.9%,?,9%,10%,20%
Cc1nnc2n1N=CC=C(c1ccccc1)S2,-4.7,4.6,0.8%,-8%,-5%,·,13%
CC1CCC2(CC1)NC(=O)N(NC(=O)CCc1c[nH]c3ccccc13)C2=O (stereo not drawn),-1.3,·,-2.6%,3%[15.4 µM],-2%,-1.1%,·
O=C(CC1SC(=Nc2ccccc2)N(CCCCO)C1=O)NCc1ccccc1 (stereo not drawn),-3.3,-1.6,1.9%,2%,6%,-0.3%,21%
O=C(NC1CCCc2ccccc21)C1CCN(S(=O)(=O)c2cnc[nH]2)CC1 (stereo not drawn),-3.4,1.7,-0.2%,2%,9%,-0.4%,-8%
Cc1ccc(NS(=O)(=O)c2ccc(-c3ccc(=O)[nH]n3)o2)cc1N(C)C,4.7,·,-4.8%,15%,3%,-0.2%,3%
CCCCCCN1C[C@H](n2cc(COC(=O)c3ccccc3)nn2)[C@@H](O)C[C@@H]1c1ccc(Cl)cc1,1.8,·,-5.5%,7%,·,-0.8%,·
COC(=O)Cn1c(C)c(C#N)c2ccccc21,-1.6,1.1,-2.8%,0%,15%,0.4%,3%
NC(c1cccc(F)c1)c1nc(-c2ccc(Cl)cc2)cs1 (stereo not drawn),-4.0,·,-2.7%,·,·,7.0%,·
COC(=O)c1cc(C(=O)c2c(C)cc3ccccn23)cc([N+](=O)[O-])c1,2.8,0.0,·,13%,5%,13%,-1%
O=C(O)CCSCC(=O)Nc1c(C(=O)C2CC2)oc2ccccc12,-4.8,0.8,-4.9%,?,-4%,-0.9%,16%
COc1cc2c(cc1OC)C1(Nc3c-2c(C)nn3-c2ccccc2)C(=O)Nc2ccccc21 (stereo not drawn),0.0,0.8,18%,14%,-6%,7.4%,-16%
Cc1ccc(-n2nc(C(N)=O)nc2-c2ccccc2)cc1,-5.0,1.8,0.3%,16%,-14%,-1.4%,0%
CC(=O)O[C@@H]1[C@H](OC(=O)CC(C)C)c2c(ccc3ccc(=O)oc23)OC1(C)C,1.9,5.1,3.6%,-17%,-14%,-0.4%,6%
Cc1nn(C)cc1CN(C)C(=O)c1ccc(OC2CCN(Cc3ccccn3)CC2)cc1,-1.0,-12,-3.2%,-28%,7%,-0.8%,-13%
O=C(Cc1cccs1)N1CCN=C1SCc1cccc(F)c1,-1.1,9.6,0.7%,26%,-6%,0.3%,6%
Cc1ccc(/C=N/Nc2ccc(F)cc2)s1,-0.6,8.4,·,?,5%,3.3%,1%
N/C(=N\c1nc2ccccc2o1)NC(=O)c1cccc(Cl)c1,-2.4,2.1,·,-7%[15.4 µM],-1%,16%,25%
O=C(CCC(=O)c1cccs1)OCC(=O)c1ccc(Cl)s1,-4.2,-2.5,0.0%,23%,-4%,0.1%,-5%
CN(CC(=O)Nc1ccc(F)cc1[N+](=O)[O-])Cc1ccccc1,4.3,0.2,·,-13%[15.4 µM],·,1.9%,2%
COc1ncc2nc(C)c(=O)n(C3CC3)c2n1,·,?,·,·,·,-0.5%,3%
CN(C)c1ncc2nc(-c3cccs3)c(=O)n(C[C@H]3CCCO3)c2n1,·,?,·,·,·,0.4%,10%
Cc1cccc(NC2CNC(=O)NC2=O)c1 (stereo not drawn),-1.2,·,·,23%,7%,0.9%,·
CCNc1nc(NCC)nc(Oc2ccc(C(=O)OC)cc2)n1,-2.7,-0.8,0.7%,19%,-6%,1.0%,20%
O=C1/C(=C/c2cccnc2)SC(=S)N1c1ccc(F)cc1,2.2,4.9,1.5%,19%,12%,3.9%,0%

# Carrying on.
SMILES,D2 agonist,Menin MLL FP FL,ClpP mod,gsp agonist,gsp antagonist,PINK1 modulator,Sfp inh
CC(C)c1nnc(NC(=O)Cc2ccc(Br)cc2)s1,-0.2,11,-3.6%,6%,11%,1.5%,-3%
COc1ccc(OCCCC(=O)Nc2cc([N+](=O)[O-])ccc2C)cc1,-3.5,0.0,-2.4%,22%,12%,1.8%,0%
CCOc1ccc(NS(=O)(=O)c2cc(NC(=O)CCNC(=O)c3ccco3)ccc2OC)cc1,0.1,·,-2.0%,-4%,2%,-1.7%,·
COc1ccc(OC)c(/C=N\NC(=O)CSc2nnc(CCCc3ccc(OC)c(C)c3)o2)c1,1.1,0.8,?,-1%,-13%,2.2%,5%
CC1(C)CC(CCC(=O)NC(=S)Nc2ccccc2Cl)C(=O)O1 (stereo not drawn),0.3,-1.9,-27%,9%,-26%,0.5%,3%

# Source: PubChem BioAssay (National Center for Advancing Translational Sciences (NCATS))
